Bioassay records deposited in PubChem BioAssay by ICCB-Longwood Screening Facility, Harvard Medical School.
HCMV UL50-53 inh: inhibitors of HCMV UL50-UL53 interaction, biochemical, HTRF. actives 0.15% (n = 190,000). HCMV UL50-UL53 nuclear egress complex (human cytomegalovirus). normalized percent inhibition. inhibition, % (no concentration beside the values). AID 1918969, 2023;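 active means both replicates at 50% or more, plus weaker picks with an unusually low signal ratio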;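 further: stock transfer was 100 nL into about 20 µL; 0% = negative control wells and 100% = wells with untagged competitor protein; inactives centre near -12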
GIV-Gai inh: inhibitors of GIV peptide binding to Galpha-i3, primary screen, biochemical, fluorescence polarization, FITC-GIV GBA peptide, rat Galphai3. actives 0.42% (n = 210,000). percent of control (FP), % (concentration not given with the values). Guanine nucleotide-binding protein G(i) subunit alpha-3 (Rattus norvegicus), P08753. 90 min; hits give low values; scaled: aluminum fluoride 0%, vehicle 100%;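 active means replicate mean at 85% of control or lower, very high polarization wells dropped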;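 further: wells of about 15 µL received 100 nL stock; the first replicate is given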
Target sequence (P08753 whole entry, looked up): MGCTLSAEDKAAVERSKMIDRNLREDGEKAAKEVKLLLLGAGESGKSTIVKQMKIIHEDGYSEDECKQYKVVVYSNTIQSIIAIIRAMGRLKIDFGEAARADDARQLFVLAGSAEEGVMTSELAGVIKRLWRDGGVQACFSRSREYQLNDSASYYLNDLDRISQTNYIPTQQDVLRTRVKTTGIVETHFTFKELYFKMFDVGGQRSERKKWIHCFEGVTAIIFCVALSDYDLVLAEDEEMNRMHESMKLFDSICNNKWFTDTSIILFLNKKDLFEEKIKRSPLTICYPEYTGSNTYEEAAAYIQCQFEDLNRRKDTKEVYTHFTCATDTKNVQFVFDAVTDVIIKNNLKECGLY
Sa growth inh: S. aureus growth inhibition at 42 and 30 °C, primary screen, LtaS inhibitor project, RN4220, two temperatures | OD600, 20 h, 42 °C; hits give low values | relative growth, % (test concentration not listed) | actives 0.53% (n = 170,000);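 active means growth at 42 °C up to 50% and 20 or more points under that at 30 °C, or under 10% at both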;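 further: 300 nL library stock went into each well; scaled to the means of positive and negative controls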
Sa growth inh second temp: further read-out of Sa growth inh, marked with its call; relative growth, %; measured here: growth at 30 °C;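 optical density after 20 h as mean of two plates; 100% = untreated growth and lower means inhibition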
Starred values were filed as active, the others as inactive; . = not tested or not shown.

Value order – Sa growth inh | HCMV UL50-53 inh | Sa growth inh second temp | GIV-Gai inh
> CC12CC(c3ccccc3O1)C(C(=O)Nc1nc(-c3ccccc3)cs1)C(=O)N2 (stereo unspecified)
    99 | 2 | 91 | 104
> O=C(CN1CCN(Cc2ccc(F)cc2)C1=O)NCc1ccccc1
    101 | -12 | 83 | 104
> COc1ccccc1CNC(=O)Cn1c(=O)oc2cc(S(=O)(=O)N3CCC(C)CC3)ccc21
    105 | 8 | 91 | 108
> O=C(CCSCc1ccccc1Cl)NC1CCCC1
    103 | -12 | 82 | 102
> CC(=O)c1sc2ccccc2c1O
    73 | -28 | 73 | .
> COc1ccc(NC(=O)c2cc(-c3ccc(F)cc3)no2)cc1OC
    96 | . | 91 | 108
> Cn1c(=O)n(C)c2cc(SC3CCCCC3)c(NS(=O)(=O)c3cccc4nsnc34)cc21
    . | -30 | . | 101
> Cc1ccc(S(=O)(=O)N(CC(=O)N2CCC(C)CC2)C(=O)N2CCN(C)CC2)cc1
    98 | -8 | 94 | 102
> CSc1nc2ccc(NC(=O)c3ccc4snnc4c3)cc2s1
    97 | -15 | 89 | 100
> O=C(Nc1cccc(C(=O)NCCN2CCCC2)c1)C1=CSCCO1
    99 | -46 | 92 | 103
> CCCN1C(=O)/C(=C/c2cc(C)n(-c3ccc(Cl)cc3)c2C)NC1=S
    93 | . | 93 | 126
> O=C(Nc1c2c(nn1-c1ccc(Cl)cc1)CSC2)c1ccc(S(=O)(=O)N2CCCC2)cc1
    . | -6 | . | 103
> COc1cccc(/C=N/c2nc3ccccc3n2C)c1O
    103 | 5 | 97 | 102
> COc1ccc(NC(=O)C2CCCN(c3nc4ccccc4nc3C(F)(F)F)C2)cc1OC (stereo unspecified)
    . | 1 | . | 111
> Cc1ccc(C)c(Nc2nn3c(=O)c4ccc(C(=O)NC5CCCCC5)cc4nc3s2)c1
    114 | . | 88 | 100
> Cc1cc(C)cc(N2Cc3ccccc3C2)c1
    87 | -10 | 81 | 105
> Cc1nn(CCC(=O)N2CCC(N3CCCCC3)CC2)c(=O)c2noc(C)c12
    . | -23 | . | 102
> C=CCn1c(SCC(=O)NCc2ccc3c(c2)OCO3)nc2scc(-c3ccccc3)c2c1=O
    . | -3 | . | 105
> Cc1ccc(C)c(N2N=C(C(=O)OCN3C(=O)c4ccccc4C3=O)CCC2=O)c1
    76 | -38 | 89 | .
> CN(C(=O)CCc1nc(CN2CCN(S(=O)(=O)c3cccs3)CC2)no1)C1CCCCC1
    105 | -4 | 92 | 102
> O=C(Cn1ncc2c3ccccc3n(Cc3ccccc3)c2c1=O)NCCc1ccc(Cl)cc1
    109 | -4 | 83 | 109
> COc1cccc2c(-c3ccccc3)nc(SCC(=O)Nc3ncc(C)s3)nc12
    . | -11 | . | 100
> O=C1c2ccccc2C(=O)N1CN(CN1C(=O)c2ccccc2C1=O)C1CC1
    115 | -35 | 75 | 98
> COC(=O)COc1ccc(-c2nnc(Nc3ccc(O)cc3)c3ccccc23)cc1
    96 | -27 | 98 | 98
> COc1cccc(NC(=O)c2oc3ccccc3c2NC(=O)C2CCCCC2)c1
    105 | 16 | 105 | 106
> CCCCOc1ccc(CSC(=N)N)cc1
    81 | -32 | 71 | 100
> CCCCOc1ccc(C(=O)Nc2cc(C)ccn2)cc1
    89 | -11 | 80 | 106
> Cc1ccc(-n2nnc(C(=O)Nc3ccc(S(N)(=O)=O)cc3)c2C)cc1Cl
    . | -34 | . | 99
> O=C(C1Nc2ccccc2S(=O)(=O)N1)N1CCN(c2cccc(Cl)c2)CC1 (stereo unspecified)
    . | -14 | . | 106
> CCN(CC)S(=O)(=O)c1ccc2oc(C(=O)NCCN3CCOCC3)c(C)c2c1
    80 | -30 | 79 | 101

Value order – Sa growth inh | HCMV UL50-53 inh | Sa growth inh second temp | GIV-Gai inh
> COc1ccc(NC(=O)CSc2nc3nc(C)c(Cc4ccccc4)c(C)n3n2)cc1OC
    139 | . | 83 | 111
> NNC(=O)C(Oc1ccccc1)Oc1ccccc1
    107 | -9 | 98 | 99
> O=C(O)C1CC=CCC1C(=O)NCCc1ccccc1 (stereo unspecified)
    84 | -22 | 99 | 101
> CCCCNC(=O)CCn1cnc2oc(C)c(C)c2c1=O
    . | -26 | . | 104
> O=C(c1ccccc1)C1(c2ccccc2)OCCCCO1
    109 | 7 | 96 | .
> O=C(COc1ccc2c(c1)C(=O)CC1(CCCCC1)O2)NCc1ccccc1
    84 | -2 | 86 | 102
> COc1ccc(N(Cc2cccs2)C(=O)COc2cccc(C)c2C)cc1
    94 | -23 | 76 | 104
> FC(F)(F)c1ccc(NC(=S)NC2CC2)cc1
    68 | -24 | 47 | .
> CCOC(=O)N1CCN(CC2CCCCC2)CC1
    97 | -8 | 104 | 102
> O=C(Cc1ccccc1)Nc1ccc2c(c1)C(=O)OC2
    102 | -18 | 79 | .
> CC(C)Cc1cc(C(=O)NCc2ccc(Cl)cc2)no1
    102 | 5 | 88 | 107
> O=C(NCCCN1CCCCCC1)C1C2C=CC3(CN(Cc4cccs4)C(=O)C13)O2 (stereo unspecified)
    88 | -24 | 91 | 104
> CCOC(=O)c1c(Nc2cccc(C)c2)nnc(-c2ccccc2)c1-c1ccccc1
    102 | -9 | 96 | 103
> CCC(CC)C(=O)Nc1cc(-c2nc3cccnc3s2)ccc1C
    94 | 4 | 101 | 110
> NS(=O)(=O)c1ccc2nc(NC(=O)c3ccc(Br)s3)sc2c1
    95 | -45 | 81 | 104
> Nc1cnn(C2CCCCC2)c(=O)c1Cl
    104 | -10 | 113 | 97
> O=C(CN1C(=O)CCCc2ccccc21)N1CCCCC1
    89 | -22 | 79 | 99
> COC(=O)c1cc(S(=O)(=O)N(C)C2CCCCC2)oc1C
    88 | -8 | 85 | 102
> COc1ccc(NC(=O)Nc2ccc(OC)c(OC)c2)cc1OC
    104 | -4 | 107 | .
> Nc1ccc(-n2ccnc2)cc1
    83 | -13 | 96 | 105
> CCOc1ccc(-n2c(=O)[nH]cc(C(=O)Nc3ccc(S(N)(=O)=O)cc3)c2=O)cc1
    . | -3 | . | 103
> Cc1ccc(-n2nc(C)c3nc(CCC(=O)Nc4cccc(F)c4)c(=O)n(C)c32)cc1
    100 | . | 93 | 105
> Cc1occc1-c1nnc(SCC(=O)NC2CCCC2)o1
    . | -26 | . | 105
> NC1=Nc2ccc(Cl)cc2C1(O)c1ccccc1 (stereo unspecified)
    89 | -8 | 88 | 100
> COc1ccc(CCNC(=O)Cc2c(C)c3c(cc(C)c4c(C)c(C)oc43)oc2=O)cc1
    86 | -32 | 84 | 102
> Cc1ccc(C)c(CN2CCC3(CC2)N=C(c2ccc(Br)cc2)C(=O)N3)c1
    . | -10 | . | 99
> CSc1cccc(NC(=O)N2CCN3CCCCC3C2)c1 (stereo unspecified)
    104 | -10 | 101 | 104
> O=C(CCC(=O)N1CCc2cc(S(=O)(=O)NCC3CCCO3)ccc21)N1CCCCC1 (stereo unspecified)
    . | 2 | . | 102
> O=C(O)CCn1ccc2cc(S(=O)(=O)N3CCCCC3)ccc21
    83 | 7 | 86 | 110
> Cc1ccc(-c2cc(Nc3ccccc3C)nc(C)n2)cc1
    . | 19 | . | 108

Value order – Sa growth inh | HCMV UL50-53 inh | Sa growth inh second temp | GIV-Gai inh
> COc1ccc(OC)c(NC(=O)CS)c1
    65 | -8 | 29 | 102
> COc1cc(/C=N/OCC(=O)NCC2CCCO2)ccc1OC(F)F (stereo unspecified)
    88 | -14 | 90 | .
> COc1ccc(CC(=O)NCc2ccccc2)cc1
    107 | -9 | 95 | 96
> CCOc1ccc2c(O)c(C3=Nc4ccccc4C3=O)sc2c1
    105 | 13 | 105 | 104
> COCCn1nnc2cc(S(=O)(=O)N3CCCCC3C(=O)Nc3ccc(Cl)cc3)ccc21 (stereo unspecified)
    . | -15 | . | 106
> Cc1ccc(SCC(=O)O)cc1
    145 | -15 | 90 | .
> Fc1ccccc1-c1csc(-n2nccc2C(F)(F)F)n1
    92 | -24 | 94 | .
> COC(=O)c1c(NC(=O)CCCOc2ccc(C(C)(C)C)cc2)sc2c1CCC(C)C2 (stereo unspecified)
    93 | -27 | 91 | 103
> COc1cc(/C=C2\C(=O)NC(=O)N(c3cccc(C)c3)C2=O)cc(OC)c1OC
    . | -12 | . | 111
> Cn1c2ccccc2c2cc(C#N)c3nc(=O)c4ccccc4n3c21
    104 | -30 | 97 | .
> O=C(O)c1[nH]n(-c2ccccc2)c(=O)c1/C=C1\C=Nc2ccccc21
    114 | . | 106 | 108
> O=C1CCCc2cc(S(=O)(=O)N3CCCc4ccccc43)ccc2N1
    95 | 8 | 94 | 99
> C=CCn1c(COc2ccc(CC)cc2)nnc1SCn1nnc2ccccc2c1=O
    98 | 14 | 98 | .
> COc1cc2c(cc1OC)C(=O)CC(C)(C)O2
    93 | -49 | 85 | 104
> O=C(NCC1COc2ccccc2O1)Nc1csc2ccccc12 (stereo unspecified)
    82 | -27 | 71 | 103
> COc1ccc(C(=O)Nc2ccc(NC(=O)c3cccs3)cc2)cc1OC
    94 | -35 | 91 | 110
> O=C(Cc1nc(-c2cnccn2)no1)N/N=C/c1ccccc1
    104 | 26 | 98 | 112
> FC(F)(F)c1ccc(-c2csnn2)cc1
    104 | -1 | 76 | 98
> CCC(=O)NC(C)c1nc(-c2ccccc2Cl)no1 (stereo unspecified)
    . | -5 | . | 105
> O=C(Nc1ccccc1)Nc1nc(CC(=O)N2CCCc3ccccc32)cs1
    . | -12 | . | 111
> N#Cc1ccccc1NC(=O)CSC1=NC(=O)C(Cc2ccccc2)C(=O)N1 (stereo unspecified)
    . | -16 | . | 103

Compounds listed so far that have a halogen, in the order listed:
Value order – Sa growth inh | HCMV UL50-53 inh | Sa growth inh second temp | GIV-Gai inh
> O=C(CN1CCN(Cc2ccc(F)cc2)C1=O)NCc1ccccc1
    101 | -12 | 83 | 104
> O=C(CCSCc1ccccc1Cl)NC1CCCC1
    103 | -12 | 82 | 102
> COc1ccc(NC(=O)c2cc(-c3ccc(F)cc3)no2)cc1OC
    96 | . | 91 | 108
> CCCN1C(=O)/C(=C/c2cc(C)n(-c3ccc(Cl)cc3)c2C)NC1=S
    93 | . | 93 | 126
> O=C(Nc1c2c(nn1-c1ccc(Cl)cc1)CSC2)c1ccc(S(=O)(=O)N2CCCC2)cc1
    . | -6 | . | 103
> COc1ccc(NC(=O)C2CCCN(c3nc4ccccc4nc3C(F)(F)F)C2)cc1OC (stereo unspecified)
    . | 1 | . | 111
> O=C(Cn1ncc2c3ccccc3n(Cc3ccccc3)c2c1=O)NCCc1ccc(Cl)cc1
    109 | -4 | 83 | 109
> Cc1ccc(-n2nnc(C(=O)Nc3ccc(S(N)(=O)=O)cc3)c2C)cc1Cl
    . | -34 | . | 99
> O=C(C1Nc2ccccc2S(=O)(=O)N1)N1CCN(c2cccc(Cl)c2)CC1 (stereo unspecified)
    . | -14 | . | 106
> FC(F)(F)c1ccc(NC(=S)NC2CC2)cc1
    68 | -24 | 47 | .
> CC(C)Cc1cc(C(=O)NCc2ccc(Cl)cc2)no1
    102 | 5 | 88 | 107
> NS(=O)(=O)c1ccc2nc(NC(=O)c3ccc(Br)s3)sc2c1
    95 | -45 | 81 | 104
> Nc1cnn(C2CCCCC2)c(=O)c1Cl
    104 | -10 | 113 | 97
> Cc1ccc(-n2nc(C)c3nc(CCC(=O)Nc4cccc(F)c4)c(=O)n(C)c32)cc1
    100 | . | 93 | 105
> NC1=Nc2ccc(Cl)cc2C1(O)c1ccccc1 (stereo unspecified)
    89 | -8 | 88 | 100
> Cc1ccc(C)c(CN2CCC3(CC2)N=C(c2ccc(Br)cc2)C(=O)N3)c1
    . | -10 | . | 99
> COc1cc(/C=N/OCC(=O)NCC2CCCO2)ccc1OC(F)F (stereo unspecified)
    88 | -14 | 90 | .
> COCCn1nnc2cc(S(=O)(=O)N3CCCCC3C(=O)Nc3ccc(Cl)cc3)ccc21 (stereo unspecified)
    . | -15 | . | 106
> Fc1ccccc1-c1csc(-n2nccc2C(F)(F)F)n1
    92 | -24 | 94 | .
> FC(F)(F)c1ccc(-c2csnn2)cc1
    104 | -1 | 76 | 98
> CCC(=O)NC(C)c1nc(-c2ccccc2Cl)no1 (stereo unspecified)
    . | -5 | . | 105

Three structures out of the list, arranged by count of non-hydrogen atoms, ascending.
Value order – Sa growth inh | HCMV UL50-53 inh | Sa growth inh second temp | GIV-Gai inh
> COc1ccc(CC(=O)NCc2ccccc2)cc1
    107 | -9 | 95 | 96
> COc1ccc(C(=O)Nc2ccc(NC(=O)c3cccs3)cc2)cc1OC
    94 | -35 | 91 | 110
> COc1cc(/C=C2\C(=O)NC(=O)N(c3cccc(C)c3)C2=O)cc(OC)c1OC
    . | -12 | . | 111
